# Screening data: PubChem, National Center for Advancing Translational Sciences (NCATS)
# VDR inh – inhibitors of human vitamin D receptor | P11473 | actives 0.93% (n = 400,000) | AID 504847 | VDR-SRC2-3 peptide fluorescence polarization, 2 h | Potency, µM, for the others: max response, negative = inhibition, usual class: inhibitors; active means well fitted inhibition curve with a large enough effect; inconclusive means small, poorly fitted or top-dose-only effect, or another doubt; inactive means no such curve, though single readings can be large or run the other way; further: series mostly up to about 120 µM
# Target sequence (P11473 whole entry, looked up): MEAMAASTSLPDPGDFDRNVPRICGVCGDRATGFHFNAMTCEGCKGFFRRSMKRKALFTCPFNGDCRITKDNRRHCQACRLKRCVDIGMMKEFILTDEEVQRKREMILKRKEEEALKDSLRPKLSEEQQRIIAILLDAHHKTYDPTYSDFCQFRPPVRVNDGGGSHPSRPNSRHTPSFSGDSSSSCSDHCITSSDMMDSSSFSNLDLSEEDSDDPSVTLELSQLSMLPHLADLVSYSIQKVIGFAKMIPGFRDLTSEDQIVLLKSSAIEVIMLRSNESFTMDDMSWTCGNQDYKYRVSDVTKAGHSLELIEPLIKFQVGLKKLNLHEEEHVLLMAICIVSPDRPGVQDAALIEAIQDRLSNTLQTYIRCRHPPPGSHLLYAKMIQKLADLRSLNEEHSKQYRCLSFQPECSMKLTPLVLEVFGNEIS
#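 Fluorescence polarization assay measuring small-molecule disruption of VDR binding to the coregulator peptide SRC2-3. Compounds were pin-transferred (23 nl) into the reagent mix and incubated 2 h at room temperature before reading.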
# * marks the source's active call; other numbers are inactive results; ? = inconclusive; & = joins results of further samples; [ ] = dose if it differs, or a comment. On the % scale 0 is the no-effect control and ±100 the full control effect; potency means the concentration at half of the fitted maximal effect. An excerpt; count on the stated rates, not on these rows.
VDR inh | Compound
-7.4% | O=C(CN1CCC(NC(=O)c2cccc(F)c2)CC1)Nc1ccc(Br)cc1
-1.1% | CCc1ccc(N2CC(C(=O)NCCC3=CCCCC3)CC2=O)cc1 (stereo not given)
-9.6% | CCC(=O)N1CCc2cc(S(=O)(=O)CCC(=O)NCc3ccc(F)cc3)ccc21
-6.9% | COc1ccc(OC)c(S(=O)(=O)NCC(=O)NC2CCCc3ccccc32)c1 (stereo not given)
-21.2% | COc1ccc(CNC(=O)c2ccc3oc(C(C)C)nc3c2)cc1
-11.6% | COc1cc(C(=O)Nc2ccc(-c3cc(C(F)(F)F)nn3-c3ccccc3)cc2)cc(OC)c1OC
-18.5% | Cc1ccc(-c2nc3cc(NC(=O)c4cc5ccccc5o4)ccc3o2)cc1
7.9% | Cc1ccc(C2(c3noc(CN4CCC(C(=O)N5CCOCC5)CC4)n3)CCCC2)cc1
-5.2% | Cc1oc2c(c(C)cc3oc(=O)c(CC(=O)NCCCN4CCCC4=O)c(C)c32)c1C
9.7% | NS(=O)(=O)c1ccc(NCC2COc3ccccc3O2)c([N+](=O)[O-])c1 (stereo not given)
-6.4% | CC1CCN(C(=O)Cn2cc(C(=O)c3ccco3)c3ccccc32)CC1
-20.7% | O=C(c1ccc([N+](=O)[O-])cc1[N+](=O)[O-])N1CCc2ccccc21
-0.7% | Cc1nn(C)cc1/C=C(/C#N)C(N)=O
5.7% | CCC(C)NCC(O)COCc1ccc(Cl)cc1 (stereo not given)
5.3% | Cc1ccc(-c2csc(NC(=O)c3ccc4c(=O)n5c(nc4c3)CCCCC5)n2)cc1
6.0% | O=C1CNC(=S)N1CCc1ccccc1Cl
9.6% | CCC1CCC(C(=O)NC(CCSC)C(=O)NCCc2ccc(S(N)(=O)=O)cc2)CC1 (stereo not given)
-9.4% | COC(=O)c1cn(NC(=O)c2cccnc2)c(=O)c2ccccc12
17.6% | COC(=O)c1cc(S(=O)(=O)NCCCN2CCCC2=O)cn1C
? | COc1ccc(CC(=O)NCC2CCCN(Cc3ccc(SC)cc3)C2)cc1 (stereo not given)
-8.0% | COc1ccc(OCC(=O)Nc2ccc3c(c2)OCO3)cc1
-28.4% | COc1ccc(CNc2ccnc(-c3ccc4c(c3)OCO4)n2)c(OC)c1
-3.7% | O=C1c2ccccc2NC(c2ccc(O)c(O)c2)N1c1ccccc1Cl (stereo not given)
-7.4% | CN1CCN(C(=O)/C=C/c2ccc([N+](=O)[O-])o2)CC1
-9.0% | O=C(O)c1ccc(S(=O)(=O)NCc2cccnc2)cc1
-5.6% | O=c1nc(-c2ccccc2)cc(C(F)(F)F)[nH]1
-5.3% | Cc1cccc(N(CC(=O)NC(C)(C)C)C(=O)CS(=O)CC(=O)Nc2ccc(F)cc2)c1 (stereo not given)
-9.6% | CCCn1c(=O)c2c(nc3n2CC(C)CN3Cc2ccccc2)n(C)c1=O (stereo not given)
-16.3% | CCOC(=O)CN1C(=O)CC(c2ccc([N+](=O)[O-])cc2)C1=O (stereo not given)
-13.9% | COc1cccc(NC(=S)Nc2ccc(Br)cc2Cl)c1

# Ordered by the number under VDR inh (highest first): some entries from above.
VDR inh | Compound
7.9% | Cc1ccc(C2(c3noc(CN4CCC(C(=O)N5CCOCC5)CC4)n3)CCCC2)cc1
5.7% | CCC(C)NCC(O)COCc1ccc(Cl)cc1 (stereo not given)
-16.3% | CCOC(=O)CN1C(=O)CC(c2ccc([N+](=O)[O-])cc2)C1=O (stereo not given)

# More results:
VDR inh | Compound
-8.3% | O=S(=O)(c1ccccc1)c1nc(-c2ccccc2)oc1N1CCOCC1
-17.4% | S=C1NC2CCCCC2N1 (stereo not given)
16.4% | N#C/C(=C\c1c[nH]c2ccccc12)c1nnc2n1CCCCC2
-0.3% | CC(C)Oc1ccc(S(=O)(=O)N2CCCCC2)cc1NC(=O)CC1OC(=O)c2ccccc21 (stereo not given)
8.2% | COCCNc1nc(N)c([N+](=O)[O-])c(N2CCCCCC2)n1
28.2% | Cc1ccc(C(=O)CCC(=O)OCC(=O)N2CCN(S(=O)(=O)c3ccc(C)cc3C)CC2)cc1
-14.4% | CCn1c(CCl)nc2cc(S(=O)(=O)N3CCOCC3)ccc21
-27.5% | COc1ccc(C(O)(CCC(C)C)C(CN2CCOCC2)c2ccc(Cl)cc2)cc1 (stereo not given)
1.2% | COc1cccc(Cn2c(=O)c(-c3cccs3)nc3cnc(N(C)C)nc32)c1
1.0% | Cc1ccccc1N=C1Nc2ccccc2N[C@]12C[C@H]1CCC(=O)N3CC[C@@H](C2)[C@@H]13
-18.5% | O=C(O)CC(C(=O)O)n1nc(-c2ccccc2)cc1-c1ccccc1 (stereo not given)
-11.3% | O=C(CCNC(=O)c1ccccc1)N/N=C/c1ccc([N+](=O)[O-])cc1
-14.8% | CCN(CC(=O)Nc1ccccc1C(F)(F)F)C(=O)Cc1cccs1
1.9% | Cc1ccc(C)c(N(CC(=O)NC2CCCC2)C(=O)c2oc(C(C)(C)C)cc2C)c1
-12.0% | COc1ccc(C(=O)Cn2nnc(-c3ccccc3NC(=O)C3CCCCC3)n2)cc1
-17.7% | O=C(NCc1ccccn1)c1n[nH]c2ccccc12
4.7% | Cc1cc(C)n(CC(=O)NC2CCCCC2C)c(=O)c1C#N (stereo not given)
2.9% | COc1cccc(C(=O)NNC(=O)Cc2csc(N)n2)c1
2.1% | N#Cc1c(NC(=S)NC(=O)Cc2cccs2)sc2c1CCCCC2
-11.5% | O=S(=O)(NCc1ccccn1)c1cc(C(F)(F)F)ccc1Cl
13.8% | O=C1CC(N2CCN(c3nc4ccccc4s3)CC2)C(=O)N1c1cccc(F)c1 (stereo not given)
27.4% | COc1ccc(NC(=O)Cn2c(C)cc(=O)c3cccc(OC)c32)cc1
-11.0% | O=C(/C=C/c1ccc([N+](=O)[O-])cc1)NCCN1C(=O)S/C(=C\c2ccc(F)cc2)C1=O
-14.2% | CC(=O)Nc1cc(C(=O)NCCN2CCN(Cc3ccccc3)CC2)ccc1Sc1ccc(C)cc1
-10.8% | Cc1noc(C)c1COC(=O)Cc1ccc(Br)cc1
-1.9% | Cc1ccc(C)c(NC(=O)CN(C)C(=O)CCN2C(=O)c3ccccc3C2=O)c1
-3.0% | O=CN1CCN(c2ncnc3c2nnn3Cc2c(F)cccc2Cl)CC1
-9.5% | CC(/C=C1\NC(=S)NC1=O)=C\c1ccccc1
-1.2% | Cc1cn(Cc2ccccc2Cn2cc(C)c(=O)[nH]c2=O)c(=O)[nH]c1=O
8.8% | CCOC(=O)C1(Cc2ccccc2)C(=O)N(CCCN(C)C)c2ccccc21 (stereo not given)

# Grouped by structure: the entries above with an NH in an aromatic ring
VDR inh | Compound
-5.6% | O=c1nc(-c2ccccc2)cc(C(F)(F)F)[nH]1
16.4% | N#C/C(=C\c1c[nH]c2ccccc12)c1nnc2n1CCCCC2
-17.7% | O=C(NCc1ccccn1)c1n[nH]c2ccccc12
-1.2% | Cc1cn(Cc2ccccc2Cn2cc(C)c(=O)[nH]c2=O)c(=O)[nH]c1=O

# Other compounds.
VDR inh | Compound
15.5% | NCCNS(=O)(=O)c1ccc(Cl)c2ccncc12
3.2% | COC(=O)N1CCC2(CC1)CCN(c1ccccc1)CC2
9.4% | Cc1ccc2c(c1)nnn2C1CCN(CC(=O)Nc2ccc(F)cc2)CC1
1.8% | COc1ccc(-c2cc(C(F)(F)F)nc(-n3cncn3)n2)cc1
-16.6% | COc1cc(NC(=O)CSc2nnc(NC(C)C)s2)cc(OC)c1OC
-4.0% | CCc1ccc(Cn2c(CNS(=O)(=O)c3ccc(Cl)s3)nc3cccnc32)cc1
-0.5% | COc1ccc(OC)c(CCNC(=O)CC2Oc3ccc(C)cc3NC2=O)c1 (stereo not given)
-20.8% | COC(=O)c1ccc(-c2nc(CN3CCC(C(=O)N4CCOCC4)CC3)c(C)o2)cc1
15.1% | O=C(Cc1c[nH]c2ccccc12)NCc1ccncc1
-0.5% | O=C1Nc2ccccc2C(=O)N2CCC[C@@H]12
6.3% | Cc1cccc(C)c1NC(=O)CS(=O)CC(=O)Nc1ccc(F)cc1F (stereo not given)
8.2% | Cc1cc(=O)n2nc(N(C)CC(=O)NCc3cccc(Br)c3)sc2n1
1.0% | Cc1ccc(NC(=O)C2CSC3(C)CCC(=O)N23)cc1S(=O)(=O)N1CCCCCC1 (stereo not given)
37.2%[activator] | CCCOc1ccc(C(=O)NC(=S)Nc2nc(C)c(C(=O)N(C)C)s2)cc1
-1.6% | C=CCC(C)(O)c1ccc(OC)cc1 (stereo not given)
6.0% | COc1ccccc1NC(=O)c1ccc(Cl)c(S(=O)(=O)N2CCOCC2)c1
-12.7% | CC(=O)c1ccc(NC(=O)CSc2nc3[nH]c(=O)cc(O)c3s2)cc1
8.5% | O=C(NC1CCCCC1)c1cc2nc3c(c(C(F)(F)F)n2n1)CCCC3
3.0% | COc1ccc(CNS(=O)(=O)c2ccc(-c3ccc(=O)[nH]n3)s2)cc1OC
9.6% | CCOc1ccccc1N(CC(=O)OC)S(=O)(=O)c1ccccc1
-4.1% | CC(C)Nc1cc(N2CCCC2)ccc1[N+](=O)[O-]
8.1% | O=C1Nc2ccccc2S/C1=C/c1cccs1
-9.2% | N#CCCc1cccc(CCC#N)c1
-5.1% | COc1cc(OC)c(N2CC(C(=O)Nc3cc(Cl)ccc3N3CCOCC3)CC2=O)cc1Cl (stereo not given)
-7.7% | CC(C)c1ccc(NC(=O)C2CC2c2ccccc2)cc1 (stereo not given)
? | CC(=O)NCCc1nc2ccccc2n1Cc1ccc(C)cc1
17.1% | O=C1CC(N2CCN(Cc3ccc4c(c3)OCO4)CC2)C(=O)N1c1cccc2ccccc12 (stereo not given)
-8.9% | CCCN1CCN(C(=O)c2ccc(F)c(S(=O)(=O)N3CCOCC3)c2)CC1
9.2% | COc1ccc(NC2CCCN(C(=O)c3ccccc3C(F)(F)F)C2)cc1 (stereo not given)
6.6% | CCOc1ccc(/C(C)=N/NC(=O)C(OC)c2ccccc2)cc1 (stereo not given)
-14.0%&-7.3% | O=C(O)CC1S/C(=N/N=C/C=C/c2ccccc2)NC1=O (stereo not given)
-6.2% | CCOc1ccc(N(CC(=O)N2CCCCC2)S(=O)(=O)c2ccc(Cl)cc2)cc1
15.0% | Cc1cc(=O)[nH]c(Nc2ccc(C(=O)OC(C)C)cc2)n1
4.9% | O=C(O)CCCN1C(=O)C2C3c4ccccc4C(c4ccccc43)[C@@H]2C1=O (stereo not given in full)
-5.0% | O=C(NCCC(c1ccccc1)c1ccccc1)c1cccs1
-1.8% | CN1CCN(C(=O)C2=C[C@H](c3ccc4c(c3)OCO4)C[C@H](OCCCCO)O2)CC1
4.9% | Cc1ccc(-c2nnn(CC(=O)N(c3ccccc3F)C(CC(C)C)C(=O)NCC3CCCO3)n2)cc1 (stereo not given)
14.4% | O=C(Nc1ccc2c(c1)OCO2)c1cc2nc(C3CC3)cc(C(F)(F)F)n2n1
? | Cc1cccnc1NC(=S)Nc1ccc(F)cc1F
-3.0% | CCSc1c([N+](=O)[O-])c(=O)n(-c2ccccc2)c2ccccc12
-3.2% | O=C(c1ccco1)N1CCN(Cc2ccc(Br)cc2)CC1
6.5% | Cc1ccsc1C(=O)OC(C)C(=O)Nc1ccc(Cl)cn1 (stereo not given)
-7.2% | C=CCn1c(SCc2ccccc2)nnc1-c1cccnc1
10.8% | CC(=O)Nc1ccc(NC(=O)c2ccccc2F)cc1
20.3% | Cc1ccc(C)c(NS(=O)(=O)c2ccc(NC(=O)c3ccco3)cc2)c1

# Five entries drawn at random from those above:
VDR inh | Compound
-3.0% | CCSc1c([N+](=O)[O-])c(=O)n(-c2ccccc2)c2ccccc12
10.8% | CC(=O)Nc1ccc(NC(=O)c2ccccc2F)cc1
4.9% | O=C(O)CCCN1C(=O)C2C3c4ccccc4C(c4ccccc43)[C@@H]2C1=O (stereo not given in full)
-6.2% | CCOc1ccc(N(CC(=O)N2CCCCC2)S(=O)(=O)c2ccc(Cl)cc2)cc1
? | Cc1cccnc1NC(=S)Nc1ccc(F)cc1F

# (next part)
VDR inh | Compound
16.9% | CCOc1ccc(NC(=O)CSc2ncc3c(n2)-c2ccccc2N(C)S3(=O)=O)cc1
-9.5% | COc1cc(C(=O)NCC(=O)N/N=C/c2cccc(OC(=O)c3ccco3)c2)cc(OC)c1OC
-10.7% | O=C(CC1C(=O)NCCN1Cc1cccc(C(F)(F)F)c1)NCCc1cnccn1 (stereo not given)
-10.3% | COc1ccc(/C=C/C(=O)NC2CCCCCCC2)cc1S(=O)(=O)N1CCOCC1
8.5% | O=C(Nc1ccc(F)cc1)c1sc(Cl)nc1-c1ccccc1
-12.9% | CC(C)(O)C#Cc1ncc(C(F)(F)F)cc1Cl
-13.0% | COc1ccc(CCNC(=O)CSCc2n[nH]c(=O)[nH]2)cc1OC
? | CCc1c(C)sc(NC(=O)c2cc(-c3cccc(Cl)c3)on2)c1C#N
8.7% | Cc1cc(/C=C2/NC(=O)N(c3ccccc3)C2=O)c(C)n1C(C)C
1.2% | COc1ccc(-c2c(NC(=O)c3ccco3)oc3ccccc3c2=O)cc1
-0.1% | Cc1ccc(NC(=S)N(Cc2ccccc2)C(C)C)cc1
-11.6% | CC1CCCN(C(=O)COC(=O)C2CCN(S(=O)(=O)c3c(Cl)cccc3Cl)CC2)C1 (stereo not given)
-17.3% | CCS(=O)(=O)c1nc(S(=O)(=O)c2ccc(Cl)cc2)c(N2CCc3ccccc3C2)s1
-4.8% | Cc1cccc(N(C(=O)c2snc(C(N)=O)c2N)C(C(=O)NC2CCCC2)c2ccc(C)o2)c1 (stereo not given)
10.0% | CCOc1nc(-c2ccccc2)ccc1-c1noc(-c2ccncc2)n1
-13.2% | COc1cccc(N=Nc2c(=O)[nH]n3c(=O)c4c([nH]c23)CCC4)c1
-18.0% | CN1CCN(C(=O)c2cn(C)c3ccc(S(=O)(=O)N(C)C4CCCCC4)cc3c2=O)CC1
